VDR inh: blocks the human vitamin D receptor; P11473; VDR-SRC2-3 peptide fluorescence polarization, 2 h; Potency, µM, without a hit: max response, negative = inhibition, most hits filed as inhibitors; hit rate 0.93% among 400,000; AID 504847; active means well fitted inhibition curve with a large enough effect; inconclusive means small, poorly fitted or top-dose-only effect, or another doubt; inactive means no such curve, though single readings can be large or run the other way; further: series mostly up to about 120 µM
Target sequence (P11473 whole entry, looked up): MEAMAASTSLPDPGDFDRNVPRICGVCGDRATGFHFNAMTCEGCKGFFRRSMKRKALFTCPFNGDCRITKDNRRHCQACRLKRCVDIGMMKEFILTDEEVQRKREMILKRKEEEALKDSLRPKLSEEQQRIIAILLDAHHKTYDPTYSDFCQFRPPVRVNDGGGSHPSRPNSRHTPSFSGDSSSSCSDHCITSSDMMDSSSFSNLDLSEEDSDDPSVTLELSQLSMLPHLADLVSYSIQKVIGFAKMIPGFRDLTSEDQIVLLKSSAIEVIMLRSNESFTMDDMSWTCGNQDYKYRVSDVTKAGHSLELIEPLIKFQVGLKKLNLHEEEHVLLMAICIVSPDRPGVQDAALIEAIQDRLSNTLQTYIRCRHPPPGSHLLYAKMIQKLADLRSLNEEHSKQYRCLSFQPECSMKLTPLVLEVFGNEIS
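VDR–SRC2-3 interaction, FP format. Cmpds 23 nl via pintool, brief spin, 2 h ambient incubation.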
* marks the source's active call; other numbers are inactive results; ? = inconclusive; & = joins results of further samples; ! = not active in a repeat. On the % scale 0 is the no-effect control and ±100 the full control effect; potency means the concentration at half of the fitted maximal effect. Only part of the results is shown; count on the stated rates, not on these rows.

SMILES	VDR inh
O=C(c1ccccc1F)N1CCN(c2ccc([N+](=O)[O-])c(NCC3CCCO3)c2)CC1 (stereo not given)	-9%
COc1cccc(CN2CCc3[nH]c(=S)[nH]c(=O)c3C2)c1	-10%
CCOCCCN1C(=O)CN(C2CCCCC2)C(=O)C1c1ccc(OCC)c(OC)c1 (stereo not given)	-2%
CCN(CC)S(=O)(=O)c1cccc(C(=O)OCC(=O)NC(C)c2ccccc2)c1 (stereo not given)	12%
Cc1ccc2[nH]c(=O)c(C(c3nnnn3C(C)(C)C)N3CCN(C(=O)c4ccco4)CC3)cc2c1 (stereo not given)	11%
CCn1c(SCC(=O)O)nc2ccccc21	-24%
Cc1ccc2nc(-c3ccccc3NC(=O)CCC(=O)O)c(=O)[nH]c2c1	1%
O=C1CCCC2=C1C1(O)C(=O)c3ccccc3C1(O)O2 (stereo not given)	?
CCC1Oc2ccc(C)cc2N(CC(=O)N2CCOCC2)C1=O (stereo not given)	-3%
CC(=O)Nc1ccccc1Sc1ccc2c3c(cccc13)C(=O)N(c1ccc(C)cc1)C2=O	-13%
CNC[C@H]1Oc2ccc(NC(=O)C3CCCCC3)cc2CC(=O)N([C@H](C)CO)C[C@@H]1C	-4%
O=C(O)CCSc1nc2ccccc2n1CCOc1ccccc1	-7%
CC(NC(=O)COC(=O)c1cc(NS(=O)(=O)c2ccc(Cl)c([N+](=O)[O-])c2)ccc1O)C1CC2CCC1C2 (stereo not given)	-1%
COC(=O)C1=C[C@@H](C(=O)OC)[C@@H]2C3=C(C(=O)C2(C)C)[C@H](c2ccccc2)[C@@H]2C(=O)N(c4ccccc4)C(=O)[C@@H]2[C@@H]3C1	-7%
COc1ccccc1CNC(=O)COC(=O)c1cccc(S(=O)(=O)N2CCOCC2)c1	-3%
Cc1nc(NC(=O)/C=C/c2ccccc2)sc1C(=O)Nc1ccccc1	17%
Cc1cccc(C(=O)Nc2ccc(-c3nc4ccccc4s3)cc2Cl)c1	4%
CCCCC(=O)NC(=O)NC(c1ccccc1)c1ccccc1	-8%
Cc1cc(C)cc(NCc2cc(=O)oc3cc(-c4ccccc4)c(O)cc23)c1	13%
CCOC(=O)CC(NC(=O)c1cc2cc(Br)ccc2oc1=O)c1cccc([N+](=O)[O-])c1 (stereo not given)	15%
O=C1CCCc2sccc2N1	2%
Cc1ccc(NS(=O)(=O)c2ccc(C(=O)N3CCCCCC3)cc2)cc1	-16%
CN(CC(=O)N1CCN(c2cccc(Cl)c2)CC1)S(=O)(=O)c1cccs1	6%
Cn1c(=O)c(=O)n(C)c2cc(S(=O)(=O)N3CCN(c4ccc(F)cc4)CC3)ccc21	1%&-20%
NC(=O)c1cc(S(=O)(=O)NCCCc2ccccc2)cs1	-23%
O=C(NCC(=O)N1CCCC(C(F)(F)F)C1)c1ccc(Oc2ccccc2)cc1 (stereo not given)	9%
CCOC(=O)C1CCN(C(=O)COc2ccc(S(=O)(=O)NC(C)(C)C)cc2)CC1	10%
CC(C)Oc1cccc(OCCN2C(=O)c3ccccc3C2=O)c1	?
CCOc1ccc(NC(=O)c2sc(N3CCOCC3)nc2-c2ccccc2)cc1	-23%
CC(=O)Nc1cccc(NC(=O)CSc2nccn2Cc2ccc3c(c2)OCO3)c1	8%
CCc1ccccc1NS(=O)(=O)c1cc2c3c(c1)CCN3C(=O)CC2	15%
O=C(CCCOC(=O)c1ccc(O)cc1O)c1ccc(F)cc1	-6%
CC(OC(=O)c1ccccc1C(=O)O)c1ccccc1 (stereo not given)	-20%
COc1ccc(C(=O)N/C(=C\c2ccccc2)C(=O)N2CCOCC2)cc1	3%
O=C(CSc1nnc(Cc2cc(=O)[nH]c(=O)[nH]2)n1-c1ccccc1)N1CCCCC1	-11%
CC[C@H](C)[C@H](NC(=O)CNC(=O)[C@@H](NC(=O)[C@@H](NC(=O)[C@H](Cc1ccc(O)cc1)NC(=O)[C@H](CC(C)C)NC(=O)[C@H](C)NC(=O)[C@H](CCC(N)=O)NC(=O)CNC(=O)[C@@H]1CCCN1C(=O)CNC(=O)[C@H](Cc1ccccc1)NC(=O)[C@H](Cc1cnc[nH]1)NC(=O)[C@@H](NC(=O)CNC(=O)[C@H](CCCNC(=N)N)NC(=O)[C@H](CCCNC(=N)N)NC(=O)[C@@H](NC(=O)[C@H](CC(N)=O)NC(=O)[C@@H](N)CS)[C@@H](C)O)[C@@H](C)CC)[C@@H](C)O)[C@@H](C)O)C(=O)O	?
CCc1nnc(NC(=O)CSc2nnc(C3CCCCC3)n2-c2ccccc2)s1	14%
Cc1ccccc1N1CCN(C2CCCN(C(=O)CCn3cnnn3)C2)CC1 (stereo not given)	-6%
CC(=O)NNC(=S)Nc1cc(S(=O)(=O)N(C)C)ccc1C	-6%
CCOC(=O)[C@@H]1[C@H]2COc3ccc(Br)cc3[C@@H]2N2C(=O)N(c3ccccc3)C(=O)[C@@]12C	7%
Nc1ncnc2[nH]c(=O)[nH]c12	11%
Cc1ccc(NC(=O)CN(C)C(=O)Cc2ccc(Cl)c(Cl)c2)cc1	22%
COc1cc2c3c(c1OC)C1(C=CC(=NNC(N)=O)C=C1)CC3N(C(C)=O)CC2 (stereo not given)	-6%
O=C(NCCN1CCOCC1)C1CC(=O)N(c2ccc(F)cc2)C1 (stereo not given)	5%
Cc1ccc(-n2c(SCC(=O)Nc3ccc4c(c3)OCCO4)nnc2-c2ccco2)cc1	16%
COc1ccc2c(C)c(CC(=O)N3C[C@H]4C[C@@H](C3)c3cccc(=O)n3C4)c(=O)oc2c1OC	-17%
COc1ccc(C(=O)NC(=S)NCc2ccccc2)cc1OC	-8%
O=C(c1ccco1)N1CCN(C(=O)c2cc3cc([N+](=O)[O-])ccc3oc2=O)CC1	-7%
CC1CCN(C(=S)NC(=O)c2ccc(C(C)(C)C)cc2)CC1	10%
Cc1ccc(-c2cc(C(=O)NCc3ccco3)c3ccccc3n2)s1	?
NS(=O)(=O)c1ccc(CCNc2ccnc3cc(Cl)ccc23)cc1	-16%
CS(=O)(=O)N(Cc1ccc(F)cc1)Cc1nc2ccccc2c(=O)[nH]1	4%
Cc1noc(C(=O)Nc2ccc(C#N)cc2)c1Cl	-3%
O=C(O)CC1(CC(=O)Nc2ccc3ccccc3c2)CCCCC1	-9%
CC1=CCn2c(=O)c3ccccc3c(=O)n2C1	-8%
CCN(CC)CCNC(=O)C1c2cc(OC)c(OC)cc2C(=O)N(C)C1c1cccs1 (stereo not given)	-1%
O=C(NNC(=O)c1ccc(Br)o1)c1ccc(NC(=O)c2ccccc2)cc1	13%
Cc1cc(NC(=O)CSc2nnc(CNC(=O)c3ccccc3)o2)no1	1%
O=C(CNC(=O)c1ccccc1F)OCn1nnc2ccccc2c1=O	-10%
CCNc1ncc2nc(CCc3ccccc3)c(=O)n(CCOC)c2n1	-1%

Arranged by number of heavy atoms (smallest number first): some entries from above.
SMILES	VDR inh
Nc1ncnc2[nH]c(=O)[nH]c12	11%
CC1=CCn2c(=O)c3ccccc3c(=O)n2C1	-8%
CC(OC(=O)c1ccccc1C(=O)O)c1ccccc1 (stereo not given)	-20%
COc1cccc(CN2CCc3[nH]c(=S)[nH]c(=O)c3C2)c1	-10%
CC1CCN(C(=S)NC(=O)c2ccc(C(C)(C)C)cc2)CC1	10%
O=C(O)CC1(CC(=O)Nc2ccc3ccccc3c2)CCCCC1	-9%
O=C(NNC(=O)c1ccc(Br)o1)c1ccc(NC(=O)c2ccccc2)cc1	13%
Cc1cc(C)cc(NCc2cc(=O)oc3cc(-c4ccccc4)c(O)cc23)c1	13%
COc1cc2c3c(c1OC)C1(C=CC(=NNC(N)=O)C=C1)CC3N(C(C)=O)CC2 (stereo not given)	-6%
O=C(CSc1nnc(Cc2cc(=O)[nH]c(=O)[nH]2)n1-c1ccccc1)N1CCCCC1	-11%
CCOCCCN1C(=O)CN(C2CCCCC2)C(=O)C1c1ccc(OCC)c(OC)c1 (stereo not given)	-2%
CC(=O)Nc1ccccc1Sc1ccc2c3c(cccc13)C(=O)N(c1ccc(C)cc1)C2=O	-13%
COC(=O)C1=C[C@@H](C(=O)OC)[C@@H]2C3=C(C(=O)C2(C)C)[C@H](c2ccccc2)[C@@H]2C(=O)N(c4ccccc4)C(=O)[C@@H]2[C@@H]3C1	-7%

Additional results follow.
SMILES	VDR inh
COCCn1c(SC2CCCCC2=O)nnc1-c1ccncc1 (stereo not given)	?
Cc1cccnc1NC(=S)Nc1ccc(Cl)c(Cl)c1	-10%
COc1cccc(/C=N/NC(=O)c2ccccc2NC(=O)c2ccco2)c1OC	-1%
COc1ccc(-c2nc3ccc(C)cn3c2Nc2ccc3c(c2)OCO3)cc1	-16%
OC1COCOC1C(O)C1OCOCC1O (stereo not given)	-1%
O=C(NC(=S)Nc1ccccc1)c1csnn1	-24%
O=C(c1ccc2c3n(nc2c1)-c1ccc(Cl)cc1CO3)N1CCOCC1	-9%
O=C(COC(=O)CNS(=O)(=O)c1cc(C(F)(F)F)ccc1Cl)NC1CC1	-9%
O=C(Nc1ccccc1)/C(=C\c1ccccc1)NC(=O)c1ccco1	12%
N=C1/C(=C\c2ccc(OC(=O)c3ccc(F)cc3)cc2)C(=O)N=C2SC(N3CCOCC3)=NN12	-9%
CCN(CCc1ccccc1)c1ccc2c(c1)C1CC2CCN1C(=O)OCc1ccccc1 (stereo not given)	5%
CC1(C)CC(=O)C(C=NCCN2CCN(C3CC(=O)N(c4ccc(Br)cc4)C3=O)CC2)=C(O)C1 (stereo not given)	-3%
CCCCN(C(=O)c1ccc(-n2nc(C)cc2C)cc1)c1c(N)n(CCC)c(=O)[nH]c1=O	-4%
Cc1cc(C(=O)N2CCC(Cc3ccccc3)CC2)no1	-14%
CC(=O)c1sc(NC(=O)c2ccc(C(C)(C)C)cc2)nc1C	2%
N#C/C(C(N)=O)=C1/CCc2ccccc2N1	-2%
COc1ccc(NC(=O)Cc2c(F)cccc2Cl)cc1	6%
Cc1ccc(/C=C(\C#N)c2nc3ccccc3[nH]2)s1	-18%
O=C(COC(=O)c1ccc(Br)o1)Nc1cccc(S(=O)(=O)N2CCOCC2)c1	-29%
CC1(C)Cc2ccccc2C(Nn2cnnc2)=N1	-11%
Cc1cc(OCC(=O)NCC(c2cccs2)N2CCOCC2)ccc1C(C)C (stereo not given)	5%
CCOc1ccccc1NC(=O)Cn1c(=O)n(CCCC(=O)NCc2ccc(C)cc2)c(=O)c2ccccc21	-2%
CCn1cc(C(=O)N2CCN(c3ccc(F)cc3)CC2)c(=O)c2cc(S(=O)(=O)N3CCOCC3)ccc21	15%
O=c1c(-c2ccccc2)nc2cnc(N3CCNCC3)nc2n1Cc1ccc(F)cc1	-12%
O=C(O)c1cccc(CSc2nnc(COc3ccccc3)o2)c1	13%
O=C1NC(=S)NC1=Cc1ccco1	28µM*
COc1ccccc1NCN1C(=O)CCC1=O	13%
O=C(CSc1nc2[nH]ncc2c(=O)[nH]1)Nc1cccc(Cl)c1	7%
Cn1nnnc1SCCNCc1ccc(OCc2ccc(Cl)cc2)cc1	-11%
COc1ccc(-c2noc(CN(C)S(=O)(=O)c3ccccc3)n2)cc1OC	0%
COc1cc(/C=C/C(=O)c2c(O)cc(C)oc2=O)ccc1O	?
CCN(c1ccc(OC)cc1)S(=O)(=O)c1c(C(=O)N2CCCCCC2)c(C)n(C)c1C	3%
COc1ccccc1-c1ccc(=O)n(CC(=O)Nc2ccc(C(=O)N3CCCC3)cc2)n1	-3%
O=C(OCc1ccc(Cl)cc1)c1ccccc1C(=O)c1ccccc1	-23%
O=C(Nc1nc2n(n1)C(c1ccc(Cl)cc1)CC(c1ccc(Cl)cc1)N2)c1ccco1 (stereo not given)	-18%
COC(=O)c1ccc(/C=N/NC(=O)CC(=O)NC(C)C)cc1	-11%
CCOC(=O)c1c(C)[nH]c(C)c1C(=O)COC(=O)Cc1n[nH]c(=O)c2ccccc12	4%
CC1(c2ccc(OC(F)F)cc2)NC(=O)N(CC(=O)NC2CCCC2)C1=O (stereo not given)	-5%
COc1ccc(CNc2ncncc2-c2ccccc2Cl)c(OC)c1	-21%
Cc1ccccc1CSc1nc2cccnc2n1Cc1ccc(C(=O)NC2CC2)cc1	6%
COc1ccc(S(=O)(=O)N(C)C)cc1NC(=O)CCCSc1ccccc1	11%
CCN1/C(=C/C=C/c2sc3ccccc3[n+]2CC)Sc2ccccc21	7.9µM*!
COc1cccc(CNS(=O)(=O)c2cccc(S(=O)(=O)N3CCOCC3)c2)c1	-2%
Cc1cc(=O)[nH]c(SCC(=O)Nc2cc(S(=O)(=O)N(C)C)ccc2Cl)n1	19%
N#Cc1cccc(C(=O)Nc2cccc(S(=O)(=O)N3CCCC3)c2)c1	-19%
COc1ccc(C(C(=O)NC2CCCC2)N(Cc2ccco2)C(=O)c2snc(C(N)=O)c2N)cc1OC (stereo not given)	0%
Cc1cn2c(=O)cc(COC(=O)COc3ccccc3C)nc2s1	1%
Cc1ccccc1CSc1cn(CC(=O)N2CCCC2)c2ccccc12	9%
Cc1ccc(-c2nnc(NCc3nc4ccccc4[nH]3)c3ccccc23)cc1S(=O)(=O)N1CCOCC1	-25%
O=C(N[C@@H](Cc1ccccc1)C(=O)O)c1c(F)c(F)c(F)c(F)c1F	6%
COC(=O)c1cc(OC)c(OC)cc1NC(=S)N1CCOCC1	-8%
CCCCNC(=O)CSc1nc2cc3c(cc2c(=O)n1CCCCCC(=O)NCCc1ccc(OC)c(OC)c1)OCO3	-2%
